D2 PAM: Beta-Arrestin HTS for Positive Allosteric Modulators of the Human D2 Dopamine Receptor: Potentiators; DiscoveRx D2 beta-arrestin cells, luminescence, 90 min; 100% = 57 uM dopamine signal; potentiation, % (concentration not given with the values); hit rate 0.23% among 360,000; active = potentiation of 50% or more; inconclusive = 30% to 50%; inactive = 30% or less;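 note: compound concentration not given in the record; tested on top of an EC20 dose of dopamine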
Target sequence (P14416 whole entry, looked up): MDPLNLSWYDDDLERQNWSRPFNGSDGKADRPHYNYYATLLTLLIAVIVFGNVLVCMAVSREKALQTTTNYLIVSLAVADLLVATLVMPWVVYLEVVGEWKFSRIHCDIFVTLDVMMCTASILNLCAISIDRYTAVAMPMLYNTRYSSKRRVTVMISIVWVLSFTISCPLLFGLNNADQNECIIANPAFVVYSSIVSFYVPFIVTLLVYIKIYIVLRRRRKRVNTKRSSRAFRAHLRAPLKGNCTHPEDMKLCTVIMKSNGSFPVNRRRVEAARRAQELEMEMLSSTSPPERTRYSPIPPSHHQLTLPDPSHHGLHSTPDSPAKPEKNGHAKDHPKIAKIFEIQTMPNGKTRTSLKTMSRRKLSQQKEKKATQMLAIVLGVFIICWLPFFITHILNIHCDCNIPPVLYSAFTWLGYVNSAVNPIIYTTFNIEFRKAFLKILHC
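PathHunter D2 cells, attached overnight at 37 deg C, received compound in DMSO plus dopamine at EC20 (50 nM final) for 90 min at 37 deg C. Beta-arrestin recruitment was read as luminescence after 1 h with detection reagent at ambient temperature.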
TRPML1 inh: qHTS for Inhibitors of the Human Mucolipin Transient Receptor Potential 1 (TRPML1). TRPML1-inducible cells, Ca2+ dye fluorescence, FDSS; stronger effect = lower value; inhibition of EC80 agonist-evoked calcium signal. activity change, negative = inhibition, % (test concentration not listed). hit rate 0.02% among 390,000. AID 624415, 2012; in the data active means activity change below about -50%; inconclusive means about -30% to -50%; inactive means above about -30%;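 note: stimulus is agonist 54-4 at its EC80 concentration; % is set by controls: 0 for no effect and ±100 for the full control effect; compound concentration not given in the record; the text of the record puts the active cut at -80%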
Target sequence (Q9GZU1 whole entry, looked up): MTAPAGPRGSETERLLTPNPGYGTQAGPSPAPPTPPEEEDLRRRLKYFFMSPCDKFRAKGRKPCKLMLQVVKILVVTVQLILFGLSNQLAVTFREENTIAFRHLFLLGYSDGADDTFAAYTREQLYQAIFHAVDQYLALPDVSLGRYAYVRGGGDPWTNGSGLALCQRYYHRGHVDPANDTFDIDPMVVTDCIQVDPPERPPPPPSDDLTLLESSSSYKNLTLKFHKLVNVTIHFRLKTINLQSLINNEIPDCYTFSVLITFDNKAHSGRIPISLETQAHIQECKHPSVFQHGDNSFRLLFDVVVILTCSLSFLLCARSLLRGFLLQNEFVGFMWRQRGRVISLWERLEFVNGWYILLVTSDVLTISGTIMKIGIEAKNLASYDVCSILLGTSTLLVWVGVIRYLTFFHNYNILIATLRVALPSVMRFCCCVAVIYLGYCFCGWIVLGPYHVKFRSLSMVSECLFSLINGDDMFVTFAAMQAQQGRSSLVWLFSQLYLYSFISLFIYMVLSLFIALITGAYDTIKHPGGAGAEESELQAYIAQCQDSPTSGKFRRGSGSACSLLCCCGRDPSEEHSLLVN
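Calcium fluorescence in TRPML1-DL cells induced overnight with Tet: a 110 s read after compound pin addition, then a 110 s antagonist read after challenge with 54-4 at 4 uM final (EC80).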
PINK1 modulator: A Quantitative High throughput Screen to Identify Chemical Modulators of PINK1 Expression | PINK1 immunofluorescence, high-content cytometry, 24 h | Potency, µM (series often up to 76.6 µM), for the others: top-dose activation (PINK1 increase), most hits filed as activators | hit rate 0.2% among 410,000 | AID 624263, 2012; active = well fitted activation curve with a large enough effect; inconclusive = small, poorly fitted or top-dose-only effect; inactive = flat fitted curve, though single readings scatter; cell line not stated here;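 note: potency is the fitted concentration of half-maximal effect; % of control where 0% means no effect; nearly all actives have a fitted effect of over 65% in size; a mitochondrial uncoupler was the plate control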
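A stable cell line was treated with compounds at 5 concentrations for 24 hours, with CCCP as control. PINK1 levels and mitochondrial localization were measured by immunofluorescence with mitochondrial, cell and nuclear markers after fixation, read by laser-scanning cytometry.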
TRPML1 ag: qHTS for Agonists of the Human Mucolipin Transient Receptor Potential 1 (TRPML1); TRPML1-expressing cells, Ca2+ dye fluorescence, FDSS; host cell line not named in the record; reference of the full effect not given here; Mucolipin-1 (Homo sapiens), Q9GZU1; activation, % (no concentration beside the values); hit rate 0.12% among 410,000; in the data active = activation above about 50%; inconclusive = about 30% to 50%; inactive = below about 30%; note: 0% is about no effect; the text of the record puts the active cut at 80%
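Calcium fluorescence on an FDSS kinetic reader gave the read-out. Tet-induced TRPML1-DL cells were plated overnight, dye-loaded (Ca8 with quencher, 45-90 min, room temperature, dark), then read 110 s after compound addition, and again 110 s after 4uM final 54-4 (EC80).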
Six1-Eya2 blk: qHTS Assay for Inhibitors of the Six1/Eya2 Interaction; Homeobox protein SIX1 (Homo sapiens) + Protein phosphatase EYA2 (Homo sapiens), …; activity change, % (no concentration beside the values); AID 651725, 2012; AlphaScreen GST-Six1/His-Eya2 binding, biochemical; stronger effect = lower value; control for the full effect not named in the record; hit rate 0.56% among 360,000; in the data active = activity change below about -65%; inconclusive = about -30% to -65%; inactive = above about -30%; note: % is set by controls: 0 for no effect and ±100 for the full control effect; compound concentration not given in the record
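Six1/Eya2 binding was read as AlphaScreen signal after compounds were pinned into GST-Six1 plus His-tagged Eya2 (5X stock 250/500 nM) in pH 8.0 Tris/NaCl/TCEP buffer, beads added, then incubated 1 h, 37 C, dark.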
D2 ag: Beta-Arrestin HTS for Positive Allosteric Modulators of the Human D2 Dopamine Receptor: Agonists | D(2) dopamine receptor (Homo sapiens), P14416 | DiscoveRx PathHunter D2 beta-arrestin, luminescence, 90 min; 100% = 57 uM dopamine signal | activation, % (no concentration beside the values) | hit rate 0.084% among 360,000 | AID 624465, 2012; in the data active = activation above about 40%; inconclusive = about 15% to 40%; inactive = below about 15%; note: compound concentration not given in the record; the text of the record calls up to 30% inactive
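DiscoveRx PathHunter D2 beta-arrestin cells (2,100/well) attached overnight, then compound-stimulated 90 min at 37 C in HBSS/10 mM HEPES/0.1% Tween-20 buffer; beta-galactosidase complementation read by luminescence after 1 h at ambient temperature. Dopamine 57 uM final (EC100) as control.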
Numbers without * were called inactive; [ ] = another dose, or the depositor's remark.

Screening Cc1cc(C)c(NC(=O)Cn2c([N+](=O)[O-])cnc2C)c(C)c1 returned D2 PAM -8, TRPML1 inh -9, PINK1 modulator 1.1%, TRPML1 ag -0.4, Six1-Eya2 blk 1 and D2 ag -3.1.
`CCCn1c(C(O)c2ccc(OCC)cc2)nc2ccccc21` (stereo unspecified) gave D2 PAM -3, TRPML1 inh 19, PINK1 modulator 5.3%, TRPML1 ag -0.5, Six1-Eya2 blk 0 and D2 ag -2.1.
`COc1ccc(Cl)cc1NC(=O)c1cc2ccccn2n1` gave TRPML1 inh -7, PINK1 modulator 7.3% and TRPML1 ag -1.1.
O=C(Nc1ccccc1)C1CCN(c2nccs2)CC1 was read as D2 PAM -3, TRPML1 inh -12, PINK1 modulator -1.0%, TRPML1 ag -0.4, Six1-Eya2 blk 0 and D2 ag -2.2.
`O=C1CN(C(=O)COC(=O)CCS(=O)(=O)c2ccccc2Cl)c2ccccc2N1` gave D2 PAM -10, TRPML1 inh inconclusive, PINK1 modulator 22%, TRPML1 ag -0.3, Six1-Eya2 blk -8 and D2 ag -2.8.
`CSCCC(NS(=O)(=O)c1ccc(Cl)cc1)C(=O)OCC(=O)NC1CC1` (stereo unspecified) gave D2 PAM -10, TRPML1 inh -2, PINK1 modulator 0.4%, TRPML1 ag -0.4, Six1-Eya2 blk 3 and D2 ag -3.9.
COc1ccc(N(CC2CO2)S(=O)(=O)c2ccc(C)cc2)cc1 (stereo unspecified) was read as D2 PAM -3, TRPML1 inh -8, PINK1 modulator 0.0%, TRPML1 ag -0.7, Six1-Eya2 blk -2 and D2 ag 1.7.
Cc1noc(C)c1S(=O)(=O)NCCc1csc2nc(-c3ccc(F)cc3)nn12 was read as TRPML1 inh -22, PINK1 modulator 1.7% and TRPML1 ag 0.3.
CCc1cccc(NC(=O)C2CCCN2S(=O)(=O)c2ccc3c(c2)CC(C)N3C(C)=O)c1 (stereo unspecified) was read as D2 PAM 0, TRPML1 inh 3, PINK1 modulator 1.7%, TRPML1 ag 1.3, Six1-Eya2 blk 5 and D2 ag 3.3.
For O=C(NCCN1CCC(n2c(=O)[nH]c3ccccc32)CC1)c1cc(F)cc(F)c1 the results were PINK1 modulator 0.7%, TRPML1 ag -0.3 and Six1-Eya2 blk -2.
`COc1ccc(/C=C/C(=O)C2(O)CCCCC2)cc1` gave D2 PAM 2, TRPML1 inh -2, PINK1 modulator 1.3%, TRPML1 ag -0.1, Six1-Eya2 blk 35 and D2 ag 0.6.
Cc1cccc(C)c1Nc1sc(C(=O)c2ccccc2)c(N)c1S(=O)(=O)c1ccccc1 was read as TRPML1 inh 31, PINK1 modulator 6.8% and TRPML1 ag 0.6.
O=C(NCc1ccccc1)c1cc2sccc2n1Cc1ccc(Cl)cc1 was read as TRPML1 inh -8, PINK1 modulator 9.2% and TRPML1 ag 0.4.
Screening Cc1ccc2c(c1)N(C(=O)CCC(=O)N1CCN(c3ccccc3)CC1)CCO2 returned D2 PAM -4, TRPML1 inh -10, PINK1 modulator -0.6%, TRPML1 ag 0.3, Six1-Eya2 blk -5 and D2 ag -3.3.
For CCOc1ccc(C2CC(c3cccc(Cl)c3)n3nc(N)nc3N2)cc1 (stereo unspecified) the results were D2 PAM -3, TRPML1 inh -8, PINK1 modulator -2.9%, TRPML1 ag 2.9, Six1-Eya2 blk -7 and D2 ag -2.1.
Screening Cc1nc2ccc(C(=O)NCCCN3CCCC3=O)cn2c1N(C)C(=O)CCc1ccccc1 returned D2 PAM -1, PINK1 modulator -0.2%, TRPML1 ag -0.8, Six1-Eya2 blk 4 and D2 ag -2.0.
Screening O=C(CCCCCCCCC(=O)N1CCCCC1)N1CCCCC1 returned D2 PAM 6, TRPML1 inh -10, PINK1 modulator 11%, TRPML1 ag 0.0, Six1-Eya2 blk 1 and D2 ag 0.5.
For CCOC(=O)c1cc2sccc2n1CC(=O)N1CCCc2ccccc21 the results were D2 PAM -10, TRPML1 inh 50, TRPML1 ag 2.8, Six1-Eya2 blk -3 and D2 ag 2.7.
O=C1N/C(=N\N=C\c2cccs2)SC1Cc1ccc(Cl)cc1Cl (stereo unspecified) was read as D2 PAM -7, TRPML1 inh 5, PINK1 modulator inconclusive, TRPML1 ag 1.2, Six1-Eya2 blk 7 and D2 ag 1.1.
For O=C(C1CCCN1C(=O)c1cccs1)N1CCc2ccccc21 (stereo unspecified) the results were D2 PAM -12, TRPML1 inh -8, PINK1 modulator -1.7%, TRPML1 ag 4.2, Six1-Eya2 blk 0 and D2 ag -2.2.
COc1ccc(NC(=O)c2ccc3ccccc3c2)cc1 was read as D2 PAM -1, TRPML1 inh 3, PINK1 modulator 2.9%, TRPML1 ag -1.2, Six1-Eya2 blk 5 and D2 ag 5.1.
For O=C1CC2(CCCCCC2)Oc2ccccc21 the results were D2 PAM 0, TRPML1 inh 6, PINK1 modulator 5.9%, TRPML1 ag 0.3, Six1-Eya2 blk 21 and D2 ag -0.4.
For O=C(CN1C(=O)C2C3C=CC(C3)C2C1=O)NCCc1ccccc1 (stereo unspecified) the results were D2 PAM -13, TRPML1 inh -3, PINK1 modulator -0.1%, TRPML1 ag -0.6, Six1-Eya2 blk -4 and D2 ag -3.9.
Screening O=C(O)c1cnn(-c2ccccc2)c1-n1cccc1 returned D2 PAM -7, TRPML1 inh 19, PINK1 modulator 1.3%, TRPML1 ag 0.2, Six1-Eya2 blk 0 and D2 ag -2.9.

Structures shown so far with two or more sulfur atoms:
`CSCCC(NS(=O)(=O)c1ccc(Cl)cc1)C(=O)OCC(=O)NC1CC1` (stereo unspecified) gave D2 PAM -10, TRPML1 inh -2, PINK1 modulator 0.4%, TRPML1 ag -0.4, Six1-Eya2 blk 3 and D2 ag -3.9.
Cc1noc(C)c1S(=O)(=O)NCCc1csc2nc(-c3ccc(F)cc3)nn12 was read as TRPML1 inh -22, PINK1 modulator 1.7% and TRPML1 ag 0.3.
Cc1cccc(C)c1Nc1sc(C(=O)c2ccccc2)c(N)c1S(=O)(=O)c1ccccc1 was read as TRPML1 inh 31, PINK1 modulator 6.8% and TRPML1 ag 0.6.
O=C1N/C(=N\N=C\c2cccs2)SC1Cc1ccc(Cl)cc1Cl (stereo unspecified) was read as D2 PAM -7, TRPML1 inh 5, PINK1 modulator inconclusive, TRPML1 ag 1.2, Six1-Eya2 blk 7 and D2 ag 1.1.

(list continues)
`COc1cccc(NC(=O)COC(=O)c2ccccc2C(=O)N(C)c2ccccc2)c1` gave D2 PAM -11, TRPML1 inh -18, PINK1 modulator -0.1%, TRPML1 ag 0.9, Six1-Eya2 blk 3 and D2 ag 0.1.
Screening COc1ccc(NS(=O)(=O)c2ccc(Br)cc2)cn1 returned D2 PAM 1, TRPML1 inh -4, PINK1 modulator 2.8%, TRPML1 ag -0.4, Six1-Eya2 blk -1 and D2 ag -2.3.
O=C(/C=C/c1ccc(Cl)cc1)Nc1ccc(Br)cn1 was read as D2 PAM -6, TRPML1 inh 18, PINK1 modulator 5.0%, TRPML1 ag 1.3, Six1-Eya2 blk -21 and D2 ag 1.1.
Screening CCN(C(=S)Nc1ccc(C(C)=O)cc1)C1CCCCC1 returned D2 PAM -1, TRPML1 inh 11, PINK1 modulator 3.4%, TRPML1 ag 0.1, Six1-Eya2 blk 8 and D2 ag -0.9.
Screening CC(C)(C)C1=C(C#N)C(c2cc3c(cc2Br)OCO3)C(C#N)=C(N)O1 (stereo unspecified) returned D2 PAM -7, TRPML1 inh -2, PINK1 modulator 4.9%, TRPML1 ag -1.2, Six1-Eya2 blk -1 and D2 ag -3.3.
Screening C/C(Sc1nnc(Cc2ccccc2)o1)=C(/O)c1ccccc1 returned D2 PAM -14, TRPML1 inh 10, PINK1 modulator 3.2%[38.3 µM], TRPML1 ag 1.0, Six1-Eya2 blk -1 and D2 ag 0.1.
O=C(Cn1cnc2sc(-c3ccccc3)cc2c1=O)NCc1ccco1 was read as D2 PAM -4, TRPML1 inh -3, PINK1 modulator 2.3%, TRPML1 ag -0.5, Six1-Eya2 blk -18 and D2 ag -1.1.
Screening COc1cc(OC)cc(C(=O)NCc2cc(C)nc3ccccc23)c1 returned D2 PAM 12, TRPML1 inh 3, PINK1 modulator 3.5%, TRPML1 ag 0.7, Six1-Eya2 blk 1 and D2 ag 4.7.
For CN(C)S(=O)(=O)c1ccc(C(=O)/C=C/c2cccnc2)cc1 the results were D2 PAM -1, TRPML1 inh -3, PINK1 modulator -2.1%, TRPML1 ag 2.0, Six1-Eya2 blk -2 and D2 ag -1.2.
Screening CCc1ccc(-c2ccc(C(=O)C(F)(F)F)[nH]2)cc1 returned D2 PAM 24, TRPML1 inh -1, PINK1 modulator -0.9%, TRPML1 ag -0.2, Six1-Eya2 blk -2 and D2 ag -2.2.
`C=CCC[C@@H](Cc1ccc(F)cc1)C(=O)OC[C@H](Cc1c[nH]c2ccccc12)NC(=O)[C@H](CC=C)CC(=O)N(CCO)Cc1ccccc1` gave TRPML1 inh 12, PINK1 modulator 0.5%, TRPML1 ag -0.3, Six1-Eya2 blk -7 and D2 ag 0.6.
`O=C(O)CONC(=O)c1cc(OCC(F)(F)F)ccc1OCC(F)(F)F` gave D2 PAM -5, TRPML1 inh 8, PINK1 modulator 2.2%, TRPML1 ag -0.7, Six1-Eya2 blk 5 and D2 ag -2.8.
For Cc1nc(NCc2ccccn2)c2c3c(sc2n1)CCCC3 the results were D2 PAM -7, TRPML1 inh 17, PINK1 modulator 3.1%, TRPML1 ag 1.9, Six1-Eya2 blk -10 and D2 ag -4.3.
`N#CCCN(CCCN1CCOCC1)CN1C(=O)c2ccccc2C1=O` gave D2 PAM -11, TRPML1 inh 31, PINK1 modulator 1.3%, TRPML1 ag -0.6, Six1-Eya2 blk 11 and D2 ag -2.7.
`CC(=O)c1ccc(N2CCN(c3ncnc4onc(C)c34)CC2)cc1` gave TRPML1 inh -5, PINK1 modulator -2.4% and TRPML1 ag 0.2.
Screening O=C(N1CCN(CCO)CC1)N1c2ccccc2C=Cc2ccccc21 returned D2 PAM -3, TRPML1 inh 31, PINK1 modulator -0.1%, TRPML1 ag -1.0, Six1-Eya2 blk 0 and D2 ag -1.8.
`CCOC(=O)C1=CCN(S(=O)(=O)c2cccc(Cl)c2)C1c1ccc(F)cc1` (stereo unspecified) gave D2 PAM 0, PINK1 modulator 3.0%, TRPML1 ag 0.7, Six1-Eya2 blk 6 and D2 ag 4.2.

Screening data (PubChem BioAssay)

This is a random part of the collection; overall some 1% were active at least once.
